High-throughput results deposited in PubChem by National Center for Advancing Translational Sciences (NCATS).
Six1-Eya2 blk – inhibitors of human Six1/Eya2 interaction; AlphaScreen GST-Six1/His-Eya2 binding, biochemical; active compounds read low; control for the full effect not named in the record; activity change, % (concentration not given with the values); hit rate 0.56% among 360,000; AID 651725; in the data active = activity change below about -65%; inconclusive = about -30% to -65%; inactive = above about -30%; note: % is set by controls: 0 for no effect and ±100 for the full control effect
Target sequence (O00167 whole entry, looked up): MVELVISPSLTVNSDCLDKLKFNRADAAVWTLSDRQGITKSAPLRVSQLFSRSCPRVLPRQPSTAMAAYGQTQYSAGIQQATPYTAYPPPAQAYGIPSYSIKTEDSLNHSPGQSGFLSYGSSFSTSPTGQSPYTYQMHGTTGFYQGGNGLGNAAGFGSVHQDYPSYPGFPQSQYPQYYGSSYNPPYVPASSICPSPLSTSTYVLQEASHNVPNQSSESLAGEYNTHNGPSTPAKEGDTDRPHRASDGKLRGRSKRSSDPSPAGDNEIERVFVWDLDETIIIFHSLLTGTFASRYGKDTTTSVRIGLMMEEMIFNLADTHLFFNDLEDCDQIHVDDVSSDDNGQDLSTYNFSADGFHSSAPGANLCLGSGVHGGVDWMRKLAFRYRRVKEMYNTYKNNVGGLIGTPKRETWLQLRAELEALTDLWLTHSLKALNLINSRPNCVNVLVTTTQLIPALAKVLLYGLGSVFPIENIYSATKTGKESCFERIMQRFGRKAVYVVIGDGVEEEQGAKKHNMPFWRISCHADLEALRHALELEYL
Target sequence (Q15475 whole entry, looked up): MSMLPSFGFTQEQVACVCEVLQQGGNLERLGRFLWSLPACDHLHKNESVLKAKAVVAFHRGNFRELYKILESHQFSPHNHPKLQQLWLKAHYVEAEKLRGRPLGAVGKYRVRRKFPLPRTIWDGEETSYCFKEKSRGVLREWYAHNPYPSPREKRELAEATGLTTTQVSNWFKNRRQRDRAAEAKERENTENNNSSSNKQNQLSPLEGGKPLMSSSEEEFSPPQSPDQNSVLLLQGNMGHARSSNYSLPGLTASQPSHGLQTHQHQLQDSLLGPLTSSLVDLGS
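AlphaScreen with GST-Six1 and His-Eya2 (5X mix: 250 nM and 500 nM), glutathione donor and nickel acceptor beads; buffer 50 mM Tris pH 8.0, 300 mM NaCl, 1 mM TCEP; 1 h at 37 C in the dark.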
PINK1 modulator – PINK1 expression modulation; Potency, µM (top dose mostly 76.6 µM), inactives show top-dose activation (PINK1 increase), hits mostly activators; hit rate 0.2% among 410,000; PINK1 immunofluorescence, high-content cytometry, 24 h; AID 624263; active = well fitted activation curve with a large enough effect; inconclusive = small, poorly fitted or top-dose-only effect; inactive = flat fitted curve, though single readings scatter; cell line not stated here;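 note: potency is the fitted concentration of half-maximal effect; % of control where 0% means no effect; nearly all actives have a fitted effect of over 65% in size; a mitochondrial uncoupler was the plate control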
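Measures PINK1 amount and localization on or inside mitochondria by immunofluorescence. Stable cells get compounds at 5 concentrations for 24 hours before fixation and staining; CCCP controls included.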
TRPV1 potentiator – human TRPV1 potentiation; TRPV1-expressing cells, Fluo-8 calcium influx, capsaicin EC20 potentiation; host cell line not named in the record; control for the full effect not named in the record; hit rate 0.02% among 320,000; potentiation, % at 8.33 µM; AID 540277; Q8NER1; active means potentiation above 80%; inconclusive means 30% to 80%; inactive means below 30%; note: 0% is about no effect
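Cells expressing TRPV1 were dye-loaded with Fluo-8 and read kinetically: 10 s baseline, 3 min after compound (agonist portion), then 2 min after EC20 capsaicin (allosteric enhancer portion). Calcium-bound dye fluorescence at 480/520 nm.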
D2 PAM – potentiates the human D2 dopamine receptor allosterically | P14416 | DiscoveRx D2 beta-arrestin cells, luminescence, 90 min; 100% = 57 uM dopamine signal | potentiation, % (test concentration not listed) | hit rate 0.23% among 360,000 | AID 624464; active = potentiation of 50% or more; inconclusive = 30% to 50%; inactive = 30% or less;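 note: compound concentration not given in the record; tested on top of an EC20 dose of dopamine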
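PathHunter beta-arrestin assay in DiscoveRx D2 cells. Compounds were added with an EC20 of dopamine (50 nM final) for 90 min at 37 deg C. Luminescence was read 1 h after detection reagent, with 57 uM dopamine as the EC100 control.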
D2 ag – agonists of human D2 dopamine receptor (beta-arrestin); hit rate 0.084% among 360,000; activation, % (no concentration beside the values); DiscoveRx PathHunter D2 beta-arrestin, luminescence, 90 min; 100% = 57 uM dopamine signal; in the data active = activation above about 40%; inconclusive = about 15% to 40%; inactive = below about 15%; note: compound concentration not given in the record; the text of the record calls up to 30% inactive
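DiscoveRx PathHunter D2 beta-arrestin cells (2,100/well) attached overnight, then compound-stimulated 90 min at 37 C in HBSS/10 mM HEPES/0.1% Tween-20 buffer; beta-galactosidase complementation read by luminescence after 1 h at ambient temperature. Dopamine 57 uM final (EC100) as control.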
Sfp inh – Sfp phosphopantetheinyl transferase inhibition; Biochemical Sfp PPTase activity, qHTS; hit rate 3.5% among 310,000; AID 1490; Potency, µM, for the others: max response, negative = inhibition, hits mostly inhibitors; active = well fitted inhibition curve with a large enough effect; inconclusive = small, poorly fitted or top-dose-only effect, or another doubt; inactive = no such curve, though single readings can be large or run the other way;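 note: the enzyme is Sfp with the accession as filed and its product quenches rhodamine fluorescence; potency is the fitted concentration of half-maximal effect; 0% = enzyme reaction without inhibitor and -100% = no enzyme wells; top concentration of the series not given in the record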
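Compounds were incubated with enzyme (final 15 nM) for 15 min at room temperature before substrate addition started the reaction. Fluorescence at 525 nm excitation, 598 nm emission was recorded immediately and after 30 minutes.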
CtBP-E1A inh – blocks the CtBP interaction with E1A; hit rate 0.49% among 340,000; AlphaScreen GST-E1A/His-CtBP binding, 1536-well; active compounds read low; control for the full effect not named in the record; activity change, % (concentration not given with the values); in the data active means activity change below about -65%; inconclusive means about -30% to -65%; inactive means above about -30%; note: % is set by controls: 0 for no effect and ±100 for the full control effect
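GST-E1A and His-tagged CtBP (125 nM each as 5X stock) were preincubated with pin-transferred compound for 2 h at 37 °C in the dark, then glutathione donor and nickel acceptor beads were added for 1 h before AlphaScreen reading.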
* hit, by the source's call; ? = inconclusive; . = no result given; [ ] = another dose, or the depositor's remark.

#1 CC(C)(C)n1nnnc1C(c1ccccc1F)N1CCN(C2CCCC2)CC1 (stereo not given)
#2 FC(F)(F)c1cccc(CC2CN(Cc3ccccc3)Cc3ccccc3N2c2cc(Cl)cc(Cl)c2)c1 (stereo not given)
#3 CCOc1ccc2nc(C)cc(Nc3ccc4c(c3)OCCO4)c2c1
#4 S=C(Nc1ccc(Oc2ccc(NC(=S)NC3CCCCC3)cc2)cc1)NC1CCCCC1
#5 Cc1ccc(C(=O)NCC(=O)NCCCc2ccccc2)s1
#6 COc1ccc(CN2C(=O)c3ccccc3C2C(=O)NCC2CCCO2)c(OC)c1 (stereo not given)
#7 CCOC(=O)C1CCN(c2nc(-c3ccccc3)nc3c2oc2ccccc23)CC1
#8 Cc1c(C(=O)Nc2ccc3c(c2)OCCO3)sc2ncnc(N3CCCCC3C)c12 (stereo not given)

assay / entry,1,2,3,4,5,6,7,8
D2 PAM,-26,-1,-29,?,-2,-4,-7,10
TRPV1 potentiator,10,.,7,19,8,0,-1,-12
CtBP-E1A inh,-1,5,-28,-14,5,-2,-1,-10
PINK1 modulator,-2.5%,2.0%,6.4%,0.2%,-2.5%,4.6%,-1.5%,-0.4%
D2 ag,-2.9,-7.6,-3.8,8.5,-0.2,2.4,-5.2,0.9
Six1-Eya2 blk,4,9,-14,-14,-4,0,-1,-9
Sfp inh,19%,.,2%,19%,-2%,6%,-16%,14%

#9 CCCC(=O)NC(=S)Nc1cccc2c(O)cccc12
#10 O=C1NC(c2ccc(O)cc2)Nc2ccccc21 (stereo not given)
#11 CCC(C)NC(=O)c1ccc(CSCc2cccc(F)c2)o1 (stereo not given)
#12 Cc1ccccc1-c1nc2ccccc2c(=O)n1C1CCS(=O)(=O)C1 (stereo not given)
#13 Brc1ccc(OCCCOc2cccc3cccnc23)cc1
#14 Cc1ccc(-c2nnc(SCC(=O)N/N=C/c3c(C)nn(-c4ccccc4)c3C)n2-c2ccc(C)cc2)cc1
#15 Cc1cc(C)cc(NC(=O)CSc2nc3c(c(=O)n2C)SC(C)C3)c1 (stereo not given)
#16 Cc1nn(C)cc1/C=N\NC(=O)Cc1ccc([N+](=O)[O-])cc1

assay / entry,9,10,11,12,13,14,15,16
D2 PAM,4,-8,-4,-6,-7,14,-4,-6
TRPV1 potentiator,5,?,-23,0,?,-4,7,11
CtBP-E1A inh,-15,0,7,-1,7,-15,-5,0
PINK1 modulator,2.0%,3.3%,4.0%[38.3 µM],-0.5%[38.3 µM],8.3%,-1.2%,19%,0.8%
D2 ag,0.6,-1.7,-0.5,-0.8,3.7,-3.6,0.2,-2.5
Six1-Eya2 blk,-9,0,-2,5,0,-12,-5,0
Sfp inh,-10%,24%,1%,12%,0%,-3%,7%,-8%

#17 O=C1NC[C@H](CCCCN2CCN(CCc3ccc(O)cc3)C(=O)C2=O)N(CCC2CCCCC2)C1=O
#18 COc1cc(OC)c(OC)cc1CN1CCCC(C(=O)c2sccc2C)C1 (stereo not given)
#19 COc1ccc(S(=O)(=O)Nc2ccc(F)c(F)c2)cc1C(=O)N1CCOCC1
#20 COc1cc(C2/C(=C(\O)c3ccc4c(c3)OCCO4)C(=O)C(=O)N2Cc2ccco2)cc(OC)c1OC (stereo not given)
#21 CCC(CCNC(=O)c1ccccc1)(CCNC(=O)c1ccccc1)[N+](=O)[O-]
#22 Cc1ccc(O)c(NC(=O)CCCC(=O)O)c1
#23 CC(NC(=O)CN(C)CC(=O)Nc1ccc(F)c(F)c1F)c1ccccc1 (stereo not given)
#24 COc1ccc(C2N(c3cc(Cl)ccc3OC)C(=O)C3CCCN32)cc1OC (stereo not given)

assay / entry,17,18,19,20,21,22,23,24
D2 PAM,.,-7,-4,0,-18,-27,2,-7
TRPV1 potentiator,.,2,-8,18,.,-2,-9,-4
CtBP-E1A inh,5,-22,3,7,3,3,24,1
PINK1 modulator,-0.1%,9.3%,-0.3%,-1.1%,-2.2%,-0.2%[38.3 µM],-0.3%,-2.7%
D2 ag,.,-4.6,-5.4,-4.4,-6.9,1.3,-1.3,-3.2
Six1-Eya2 blk,4,-14,12,4,-2,2,21,-2
Sfp inh,.,-6%,-4%,?,.,15%,22%,3%

#25 O=C(NNC(=O)C1CCCN(c2ncccn2)C1)c1ccc(F)cc1 (stereo not given)
#26 CC(=O)c1c(C)[nH]c(C(=O)NCCCN2CCCC2)c1C
#27 Cc1ccc(C(=O)CSc2nnc(CNc3ccc(C)cc3C)n2Cc2ccco2)cc1
#28 N#Cc1ccc(Cl)cc1NC(=O)COC(=O)c1cccc(S(=O)(=O)N2CCOCC2)c1
#29 COC(=O)C(Nc1nccs1)(OC)C(F)(F)F (stereo not given)
#30 COCCNC(=O)C(=O)N/N=C/c1ccc(C(=O)OC)cc1
#31 O=C(CSc1nc2ccccc2c(=O)n1-c1ccc(SC(F)F)cc1)Nc1ccc(N2CCOCC2)cc1
#32 O=C(CSc1ncccc1C(=O)O)NC12CC3CC(CC(C3)C1)C2

assay / entry,25,26,27,28,29,30,31,32
D2 PAM,-15,-8,8,0,1,-4,-4,2
TRPV1 potentiator,4,4,4,-4,10,1,-12,3
CtBP-E1A inh,10,-2,?,-22,1,8,-3,-12
PINK1 modulator,.,1.4%,0.5%,0.2%,1.7%,0.9%,13%,-0.5%
D2 ag,-2.6,0.1,-4.0,3.1,-1.6,-2.9,-1.7,-3.7
Six1-Eya2 blk,1,-2,-25,-1,-1,-2,5,17
Sfp inh,24%,4%,4%,.,9%,7%,-16%,?

#33 COc1ccc(C2OC(=O)c3ccccc3S2)cc1 (stereo not given)
#34 CC(=O)OC1CSc2nc3ccccc3n2C1 (stereo not given)
#35 CC(=O)c1cccc(NC(=O)Nc2ccc(C(=O)N3CCCC3)cc2)c1
#36 Cc1ccc(N2CC(C(=O)Nc3nnc(SCC(=O)NCC4CCCO4)s3)CC2=O)cc1 (stereo not given)
#37 O=C(CCN1C(=O)/C(=C/c2cccs2)SC1=S)Nc1ccccn1
#38 O=C(CC1Nc2ccccc2NC1=O)Nc1cc(Cl)cc(Cl)c1 (stereo not given)
#39 O=C(CCC(=O)OCC(F)(F)C(F)F)Nc1ccc(Cl)cc1
#40 N#Cc1cccc(NC(=O)CSc2cccc[n+]2[O-])c1

assay / entry,33,34,35,36,37,38,39,40
D2 PAM,-7,-10,-5,6,-5,-13,-1,-6
TRPV1 potentiator,-13,8,26,2,-2,-2,-10,.
CtBP-E1A inh,3,8,11,3,-8,4,2,10
PINK1 modulator,6.0%[38.3 µM],9.3%[38.3 µM],?,0.2%,16%,8.9µM*,2.1%,2.2%
D2 ag,-1.6,-1.7,0.7,-2.4,-4.8,-2.4,-2.5,-0.9
Six1-Eya2 blk,3,3,5,0,-13,7,0,1
Sfp inh,-2%,12%,5%,5%,11%,20%,14%,.

#41 Cc1cccc(C2(c3cccc(C)c3)CC2C(=O)NCC2CCCO2)c1 (stereo not given)
#42 CC(=O)c1c(C)nc(-c2ccc(Cl)cc2)nc1N
#43 Cc1ccc(-c2ocnc2C(=O)N2CCOCC2)cc1
#44 Cc1ccc(NC(=O)CNC(=O)c2ccco2)nc1
#45 COc1ccc(NC(=O)CSc2nnc3ccc(-c4ccccn4)nn23)cc1OC
#46 Cn1ccnc1C(O)c1cccc(OCc2ccccc2)c1 (stereo not given)
#47 COc1cccc(NC(=S)N(Cc2ccc(C(=O)O)cc2)Cc2ccc(OC)c(OC)c2)c1
#48 COc1ccc(C(=O)N2CCCC(C(N)=O)C2)cc1S(=O)(=O)N1CCOCC1 (stereo not given)

assay / entry,41,42,43,44,45,46,47,48
D2 PAM,-12,2,-6,-7,-18,3,0,0
TRPV1 potentiator,-14,-2,-10,-4,13,-4,-1,-2
CtBP-E1A inh,5,5,-1,1,3,.,0,3
PINK1 modulator,0.4%,5.1%,-1.9%,-0.7%,-5.0%,-1.3%,-0.5%,0.9%
D2 ag,-4.1,8.1,-2.1,-0.1,-5.2,0.4,0.9,-0.7
Six1-Eya2 blk,-6,8,-2,-2,7,-1,-3,9
Sfp inh,18%,-16%,21%,9%,.,5%,6%,.

#49 COc1cc2[nH]c(=S)nc(NCc3ccccn3)c2cc1OC
#50 Cc1ccc(N2C(=O)c3ccccc3C2(O)c2ncc[nH]2)cc1 (stereo not given)
#51 CCOc1ccc(CCNC(=O)c2cccc(S(=O)(=O)N3CCOCC3)c2)cc1OCC
#52 O=C(CSC1=NCCS1)NC1CCCC1
#53 O=[N+]([O-])c1cc([N+](=O)[O-])c2n[nH]c(-c3ccccc3)c2c1
#54 O=C(COC(=O)C1Cc2ccccc2CN1C(=O)c1ccccc1Cl)Nc1ccc(N2CCOCC2)cc1 (stereo not given)
#55 C=CCN(C)NC(=O)Nc1ccccc1
#56 Cc1cccc(-c2nnc(SCC(=O)Nc3cccc(C(=O)N4CCOCC4)c3)n2C)c1
#57 COc1ccc(C(=O)COC(=O)/C=C/c2ccccc2[N+](=O)[O-])cc1
#58 COc1ccc(CNc2nc3ccccc3n2C)c(OC)c1
#59 CS(=O)(=O)Nc1ccc(C(=O)NCc2ccccn2)cc1

assay / entry,49,50,51,52,53,54,55,56,57,58,59
D2 PAM,-9,-15,-5,-16,8,1,-1,-4,-14,-32,-7
TRPV1 potentiator,4,29,1,-5,-6,-1,-5,6,.,-3,14
CtBP-E1A inh,?,-3,-15,-1,.,-2,1,-11,-1,5,38
PINK1 modulator,0.6%,21%,0.8%,-0.6%,2.2%,3.2%,-2.2%,0.0%,-2.1%,0.7%,0.1%[38.3 µM]
D2 ag,-6.0,-2.3,4.3,-4.0,4.9,-4.5,1.3,-8.7,-4.7,-4.2,-1.9
Six1-Eya2 blk,-70*,7,-1,0,183,-16,1,2,-22,0,28
Sfp inh,-17%,?,.,17%,24%,-4%,10%,28%,.,?,20%

An excerpt from above, showing only D2 PAM, Six1-Eya2 blk and D2 ag:
cpd | SMILES | D2 PAM | Six1-Eya2 blk | D2 ag
53 | O=[N+]([O-])c1cc([N+](=O)[O-])c2n[nH]c(-c3ccccc3)c2c1 | 8 | 183 | 4.9
54 | O=C(COC(=O)C1Cc2ccccc2CN1C(=O)c1ccccc1Cl)Nc1ccc(N2CCOCC2)cc1 (stereo not given) | 1 | -16 | -4.5

Compound profiles, from the list above. Order of values: D2 PAM	TRPV1 potentiator	CtBP-E1A inh	PINK1 modulator	D2 ag	Six1-Eya2 blk	Sfp inh
Record of O=[N+]([O-])c1cc([N+](=O)[O-])c2n[nH]c(-c3ccccc3)c2c1 → 8	-6	.	2.2%	4.9	183	24%
Record of CCOc1ccc(CCNC(=O)c2cccc(S(=O)(=O)N3CCOCC3)c2)cc1OCC → -5	1	-15	0.8%	4.3	-1	.
